NS1 inh: blocks influenza NS1 protein function; S. cerevisiae slowed by influenza A NS1, growth recovery by OD600; Potency, µM (highest dose often 46.1 µM), for the others: at the highest dose activity, positive = more growth; 270,000 compounds, 0.4% hits; AID 2326; active means well fitted rising curve with a large enough effect; inconclusive means small, poorly fitted or top-dose-only effect; inactive means no such curve, though single readings can be large or run the other way; also: nearly all actives have a fitted effect of over 50% in size
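Compounds were scored for reversing the slow growth caused by influenza A NS1 in S. cerevisiae, measured by optical density at 600 nm. Assay medium contained 2% galactose at pH 6.0; NS1-free yeast of the same strain were the positive control.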
MARV entry inh: inhibitors of Marburg virus binding or cell entry; Marburg virus pseudotyped entry inhibition, cell reporter; control for the full effect not named in the record; about a third of the inactives were read at about 46 µM; Potency, µM (doses to about 37.8 µM), without a hit: at the top dose activity change, negative = inhibition, hits mostly inhibitors; 300,000 compounds, 1.8% hits; AID 540276; active = well fitted inhibition curve with a large enough effect; inconclusive = small, poorly fitted or top-dose-only effect, or effect the other way; inactive = flat fitted curve, though single readings scatter; tested in HEK293 cells; about a fifth of its hits are not listed in these tables; also: % is scaled to controls: 0 for no effect and ±100 for the full control effect; luciferase read-out
SARS PLpro yeast: blocks SARS-CoV papain-like protease in a yeast assay | S. cerevisiae expressing SARS-CoV PLpro, growth rescue; control for the full effect not named in the record | 330,000 compounds, 0.19% hits | Potency, µM (titrated, usually from 32.9 µM), without a hit: at the highest dose activity, positive = growth rescue; active means well fitted rising curve with a large enough effect; inconclusive means small, poorly fitted or top-dose-only effect; inactive means no such curve, though single readings can be large or run the other way; also: 0% is about no effect; nearly all actives have a fitted effect of over 55% in size; growth read by luminescence after 48 h
Cruzain noTriton: blocks cruzain activity in detergent-free assay | P25779 | purified cruzain, Z-FR-AMC fluorescence, no detergent | Potency, µM, without a hit: max response, negative = inhibition, hits mostly inhibitors | 200,000 compounds, 2.3% hits | AID 1476;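 also: plate controls were enzyme without inhibitor for no effect and buffer without enzyme for full effect; nearly all actives have a fitted effect of over 40% in size; top concentration of the series not given in the record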
Target sequence (P25779 123-467 limits assumed): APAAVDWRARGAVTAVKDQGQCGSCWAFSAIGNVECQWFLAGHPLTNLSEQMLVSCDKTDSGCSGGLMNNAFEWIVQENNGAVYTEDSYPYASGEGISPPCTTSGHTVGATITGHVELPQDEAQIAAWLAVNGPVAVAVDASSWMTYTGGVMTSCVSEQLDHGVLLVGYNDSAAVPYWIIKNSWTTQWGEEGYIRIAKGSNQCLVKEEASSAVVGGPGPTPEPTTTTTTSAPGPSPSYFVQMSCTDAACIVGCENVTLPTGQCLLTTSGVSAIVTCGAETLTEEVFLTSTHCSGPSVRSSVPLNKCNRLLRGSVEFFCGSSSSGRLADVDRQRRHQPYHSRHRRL
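Purified cruzain at 1.5 nM, pre-incubated 15 min with compound at room temperature in 100 mM sodium acetate pH 5.5, 5 mM DTT, 0.00005% Triton X-100. Reaction started with 2 uM Z-FR-AMC; AMC fluorescence increase over 60 s gives rate.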
LASV entry inh: Lassa virus entry inhibition | Lassa virus pseudotype entry inhibition, cell reporter; control for the full effect not named in the record | Potency, µM (highest dose often 37.9 µM), without a hit: at the highest dose activity change, negative = inhibition, actives largely listed as inhibitors | 300,000 compounds, 1.2% hits | AID 540256; active means well fitted inhibition curve with a large enough effect; inconclusive means small, poorly fitted or top-dose-only effect, or effect the other way; inactive means flat fitted curve, though single readings scatter; tested in HEK293 cells; also: % is scaled to controls: 0 for no effect and ±100 for the full control effect; nearly all actives have a fitted effect of over 50% in size; luciferase read-out
StopGo reporter: lowers the luciferase signal of an FMDV 2A StopGo reporter; Potency, µM (doses to about 57.9 µM), for the others: top-dose signal change, negative = less light; human cells with a luciferase reporter of 2A StopGo recoding; control for the full effect not named in the record; 410,000 compounds, 1.2% hits; active = well fitted falling curve with a large enough effect; inconclusive = small, poorly fitted or top-dose-only effect; inactive = no such curve, though single readings can be large or run the other way; tested in HEK293T cells; also: % is scaled to controls: 0 for no effect and ±100 for the full control effect; nearly all actives have a fitted effect of over 45% in size; luciferase light after 4 h
RE007 growth inh: less growth of the S. pombe RE007 Vpr strain; S. pombe RE007 Vpr strain, BacTiter-Glo ATP luminescence, 24 h; control for the full effect not named in the record; Potency, µM (top dose mostly 92.2 µM), for inactives: top-dose activity change, negative = less growth; 360,000 compounds, 0.21% hits; active = well fitted falling curve with a large enough effect; inconclusive = small, poorly fitted or top-dose-only effect; inactive = no such curve, though single readings can be large or run the other way;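 also: % is scaled to controls: 0 for no effect and ±100 for the full control effect; nearly all actives have a fitted effect of over 50% in size; the assay follows cell death caused by Vpr and the record does not say whether a fall means rescue or toxicity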
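Fission yeast strain RE007, carrying one chromosomally integrated HIV-1 vpr copy, was seeded at OD 0.01 in PMG+AL medium with 23 nL pinned compound. After 24 h at 30 °C and 99% humidity, viability was read by BacTiter-Glo luminescence.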
Cruzain Triton: inhibitors of Trypanosoma cruzi cruzain with detergent; P25779; purified cruzain, Z-FR-AMC fluorescence, 0.01% Triton; Potency, µM, for inactives: max response, negative = inhibition, most hits filed as inhibitors; 200,000 compounds, 0.43% hits; AID 1478;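 also: plate controls were neutral wells for no effect and buffer without enzyme for full effect; nearly all actives have a fitted effect of over 40% in size; top concentration of the series not given in the record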
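Steps: dispense cruzain (1.5 nM final) in acetate buffer pH 5.5 with DTT and 0.01% Triton X-100; pin-transfer compounds; incubate 15 min RT; add Z-FR-AMC (2 uM final); read fluorescence every 30 s, using the 60 s intensity change.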
An asterisk follows results filed as active; u = inconclusive; x = not tested or not shown; & = joins results of further samples; [ ] = dose if it differs, or a comment. Unless noted, calls follow the shape of the dose curve; as a rule, active = well fitted curve in the direction sought with a large enough effect; inconclusive = small, poorly fitted or top-dose-only effect, or another doubt; inactive = no such curve, though single readings can be large; an effect the other way counts as inactive or inconclusive. Potency is read from the fitted curve at half-maximal effect. An unsorted share of the library; about 4.5% have a hit in one of these screens.

SMILES | NS1 inh | MARV entry inh | SARS PLpro yeast | Cruzain noTriton | LASV entry inh | StopGo reporter | RE007 growth inh | Cruzain Triton
COc1cccc(-c2nn(-c3ccccc3)cc2CO)c1 | -42.7% | u | x | 0.6% | 14.9% | 28.8% | -4.5% | -3.6%
O=C(Nc1ccccc1N1CCOCC1)c1ccc2ccccc2c1 | -36.7% | 19.0%[46.1 µM] | -7.8% | x | 6.7%[46.1 µM] | 1.2% | 2.2% | x
COc1ccc(NC(=O)C2CCCN(c3c4c(nc5ncnn35)CCC4)C2)cc1 (centres undefined) | -1.6% | u | 14.9% | 2.4% | -19.1% | u | 8.7% | -0.8%
COc1ccc(C(C(=O)NCc2ccccc2)N(C(=O)c2snc(C(N)=O)c2N)c2ccccc2OC)cc1OC (centres undefined) | -4.2% | -25.3%[46.1 µM] | 0.3% | x | -21.7% | -9.8% | -16.5% | x
Cc1ccc(-c2onc(C)c2C)cc1S(=O)(=O)N1c2ccccc2CC1C (centres undefined) | x | x | x | -11.7% | -21.1%[46.1 µM] | u | x | -4.9%
O=C(COC(=O)c1ccccc1NCCO)Nc1ccc(S(=O)(=O)NC2=NCCCCC2)cc1 | x | -4.8% | x | x | 16.8% | -18.4% | -23.7% | x
CC(C)[C@H](NC(=O)[C@H](Cc1ccccc1)n1c(=O)[nH]c2ccccc2c1=O)C(=O)N1CCC[C@H]1C(=O)O | 3.2% | x | 4.3% | x | x | -7.1% | -8.1% | x
Cc1ccc(C(=O)Nc2ccc(N3CCOCC3)cc2N2CCOCC2)cc1 | 2.8% | -7.1% | u | x | -5.3% | -15.0% | -23.3% | x
CC(C)c1ccc(NC(=S)NC2CCCCCC2)cc1 | -8.5% | u | -0.1% | x | u | 45.4%[activator] | 12.4% | x
Cc1cc(C)n2nc(SC(C)C(=O)N3CCOCC3)nc2n1 (centres undefined) | x | u | 1.5% | x | 17.4% | 6.8% | -1.0% | x
CCNC(=O)c1cc2c(=O)n3cccc(C)c3nc2n(Cc2ccc(C)cc2)c1=N | u | u | 1.7% | u | -5.5% | u | -6.2% | u
CC1(C)CC(=O)C=C(Nc2ccc(C(=O)O)cc2)C1 | -2.0% | 6.6% | -4.2% | 1.6% | 13.9% | -13.3% | 42.6% | -8.3%
O=C(c1cccc([N+](=O)[O-])c1)N1CCCC(C(=O)N2CCN(c3ccccc3)CC2)C1 (centres undefined) | -9.5% | -10.5% | -4.2% | x | 4.3% | -9.7% | 9.4% | x
COCCNC(=S)N1CCC(NC(=O)Nc2ccc(C)cc2)CC1 | 0.9% | x | -0.5% | x | x | -3.9% | 8.5% | x
Cn1c(=O)c2c(nc(NCCc3ccccc3)n2Cc2ccc(Cl)cc2)n(C)c1=O | x | 10.5%[46.1 µM] | x | -2.7% | 1.4%[46.1 µM] | u | x | -8.8%
CCc1nnc(NC(=O)C2CCCN2C(=O)Nc2ccc(Cl)cc2)s1 (centres undefined) | 24.6% | -9.1%[46.1 µM] | -0.9% | x | -0.7% | 9.4% | 4.8% | x
COc1ccccc1NS(=O)(=O)c1cc(NC(=O)c2ccc3c(c2)OCCO3)ccc1C | -30.6% | u | -1.7% | u | u | 36.1%[activator] | 5.8% | -5.4%
O=C(NCCCCNC(=O)c1ccc(Cl)s1)c1ccc(Cl)s1 | 1.8% | 7.3% | 2.8% | -26.5% | 1.7% | -2.8% | 11.8% | -2.5%
O=C(OCC(=O)N1CCCc2ccccc21)c1ccc(F)c(S(=O)(=O)N2CCOCC2)c1 | x | -3.6%[46.1 µM] | -5.3% | x | 21.5% | -9.2% | 4.4% | x
CSc1nnc2c(n1)OC(C)N(C(=O)c1ccccc1)c1ccccc1-2 (centres undefined) | -0.6% | -13.0% | -0.1% | -10.0% | -15.1% | -6.9% | 1.4% | -4.6%
N#CC1(C#N)OC12CCS(=O)(=O)c1ccccc12 (centres undefined) | x | 12.5% | x | x | 0.1% | u | -9.1% | x
Cc1ccc(-c2ccc(C(=O)NCc3ccc(Cl)cc3)o2)c2ccccc12 | -42.0% | 4.7% | -20.8% | 25.1µM* | 20.6µM* | -24.8% | -1.1% | u
Cc1ccc(S(=O)(=O)C2C(=O)N(C)C3(C)CC2c2ccccc2O3)cc1C (centres undefined) | 9.7% | u | 27.8% | -1.7% | 0.4% | 5.5% | -4.8% | 0.8%
Nc1nc(SCC(=O)c2ccc(Cl)cc2)c2ncn(C3OC(CO)C(O)C3O)c2n1 (centres undefined) | x | 5.5% | x | x | -2.0% | 0.5% | -13.8% | x
COc1ccc(N(C)C(=O)c2cn(C3CCCCC3)c(=O)c3c2c2ccccc2n3C)cc1 | x | u | x | 12.4% | u | 0.0% | x | -9.4%
COc1ccc(C)cc1S(=O)(=O)N(CC(=O)N1CCOCC1)c1cc(C)cc(C)c1 | -0.3% | u | 1.2% | x | u | 37.2%[activator] | 13.6% | x
Cc1ccc(CNC(=O)c2csc3c2CCCCC3)cc1 | 3.0% | 2.2% | 1.9% | -24.6% | 10.7% | -9.2% | 5.8% | -0.8%
COc1cccc(C(=O)Nc2ccc(C(=O)c3ccccc3)cc2)c1 | -25.3% | x | -7.4% | x | x | -11.5% | -8.7% | x
Cc1ccc(OCc2ccc(C(=O)NN)o2)cc1C | 10.0% | x | 0.2% | x | x | 37.8%[activator] | -14.3% | x
Cc1cccc(Cn2c(=O)n(Cc3ccccc3)c(=O)c3c2c2cc(C)ccc2n3C)c1 | x | x | x | u | u | -15.2% | x | -1.0%
OCC1CCCCN1C(=S)Nc1ccc(Cl)cc1Cl (centres undefined) | -2.5% | x | -0.2% | x | x | 83.4%[activator] | 4.7% | x
CC1=C(C(=O)Nc2ccccc2)C(c2ccccn2)n2nc(SCc3ccccc3)nc2N1 (centres undefined) | x | u | x | 12.1% | u | -2.3% | x | -0.1%
O=[N+]([O-])c1cccnc1N1CCC(c2cc(-c3cccc(C(F)(F)F)c3)n[nH]2)CC1 | 14.5% | u | -30.4% | -2.4% | u | -6.2% | 7.9% | -5.6%
COc1ccc(C)cc1NC(=O)CNC(c1ccccc1)c1ccc(C)cc1 (centres undefined) | -10.4% | x | -1.8% | x | x | u | -0.7% | x
CN1CCN(CCc2nc3cc(NC(=O)COc4ccccc4)ccc3n2C)CC1 | -3.7% | -7.5%&-7.5% | 2.0% | -4.7% | -1.7% | -12.6% | -5.7% | -3.2%
COC(=O)CCCNC(=O)c1ccc(OS(=O)(=O)c2cc([N+](=O)[O-])ccc2C)cc1 | x | -16.5%[46.1 µM] | -0.3% | x | 21.8% | -17.0% | 5.8% | x
CCOC(=O)c1cnc2ccccc2c1Nc1cccc(OC)c1 | x | x | x | -6.8% | -17.9%[46.1 µM] | -17.1% | x | -7.7%
O=C(NCc1ccccc1)C(Cc1ccccc1)N1C(=O)C2C3CCC(C3)C2C1=O (centres undefined) | 1.7% | 1.7% | 13.1% | -12.4% | 0.2% | -3.6% | 9.3% | 3.8%
CCCn1c(=O)c2c(nc3n2CCCN3Cc2ccccc2)n(C)c1=O | -15.3% | x | -3.2% | x | x | u | -3.5% | x
O=C(C1CCC(=O)N(C2CC2)C1)N1CCC(Oc2cccc(F)c2)CC1 (centres undefined) | -0.3% | x | -1.3% | x | x | -10.4% | -0.9% | x
COc1ccc(-c2nnc(SCC(=O)Nc3ccc(C)cc3)n2C)cc1 | -5.9% | -6.5% | u | -4.8% | 1.1% | x | 9.6% | 2.4%
COCCNc1c(-c2ccc(OC)c(OC)c2)nc2ccc(Cl)cn12 | -2.1% | x | 1.7% | x | x | -23.8% | -18.3% | x
COc1ccc(C(=O)C2CCCN(Cc3cc(Cl)ccc3O)C2)c(OC)c1 (centres undefined) | -26.3% | u | 5.0% | x | u | u | -13.2% | x
CC(=O)N1CCN2C(=O)C1CCCC(=O)c1cc(C3CCCCC3)ccc12 (centres undefined) | -8.9% | -16.0% | 2.8% | 17.7% | -1.2% | 15.9% | 9.1% | -2.1%
COc1cc(Cl)ccc1OCc1cc(C(=O)N(C)Cc2nnc(C)o2)no1 | 12.1% | u | 1.8% | x | 22.0% | 55.6%[activator] | -1.1% | x
Cc1ccc(NS(=O)(=O)c2ccc(-c3ccc(=O)[nH]n3)o2)cc1Cl | -1.3% | 5.7%[46.1 µM] | 1.3% | x | 5.3%[46.1 µM] | 17.1% | 11.4% | x
Cc1nonc1NC(=O)CSc1nc(C2CCCCC2)nc2ccccc12 | -15.5% | u | 18.3% | -8.7% | 6.1% | u | -2.7% | -5.1%
NC(=O)C1CC(=O)N(c2ccc(OCC(=O)NCc3ccccc3)cc2)C1 (centres undefined) | 4.2% | u | -0.3% | x | -6.3%[46.1 µM] | 22.8% | -16.3% | x
Cc1ccc(S(=O)(=O)N(CC(=O)N/N=C/c2ccco2)Cc2ccccc2)cc1 | 2.0% | u | 6.4% | -3.9% | -24.2% | 14.2% | -4.4% | -7.4%
C[C@]1(CO)CCC[C@@]2(C)C1CC[C@@H](CO)[C@@H]2CCc1ccoc1 (some centres undefined) | 1.8% | x | 0.5% | x | x | u | 6.4% | x
O=C(NCCC1CCCCN1S(=O)(=O)c1ccc(F)cc1)C(=O)NCCN1CCOCC1 (centres undefined) | x | -2.1% | 2.3% | x | -0.3% | 3.2% | -5.0% | x
O=C(c1cccnc1)N1CCC(Oc2ccc(C(=O)N3CCCCO3)cc2)CC1 | 2.1% | x | 0.4% | x | x | 6.4% | -4.6% | x
c1ccc2[nH]c(NC3=NCCC3)nc2c1 | 1.7% | 1.0%[46.1 µM] | 0.1% | -4.1% | 6.2% | -1.5% | -4.1% | -15.4%
O=C(CCC1N=C2c3ccccc3N=C(SCc3cccc(F)c3)N2C1=O)NCc1cccs1 (centres undefined) | x | x | x | 3.6% | -5.6%[46.1 µM] | u | x | -2.3%
CCOC(=O)NC(=O)CSc1ccc(C)cc1C | 3.6% | -1.3%[46.1 µM] | 2.4% | x | 0.1% | -1.5% | 23.7% | x
CC(C)Oc1ccccc1NC(=O)CSc1nc2ccccc2c(=O)n1C | -16.5% | x | 1.1% | x | x | u | -5.9% | x
